VDR inh = Inhibitors of the vitamin D receptor (VDR): qHTS; Vitamin D3 receptor (Homo sapiens), P11473; VDR-SRC2-3 peptide fluorescence polarization, 2 h; Potency, µM, for inactives: max response, negative = inhibition, hits mostly inhibitors; 400,000 compounds, 0.93% hits; AID 504847, 2011; active = well fitted inhibition curve with a large enough effect; inconclusive = small, poorly fitted or top-dose-only effect, or another doubt; inactive = no such curve, though single readings can be large or run the other way; note: series mostly up to about 120 µM
Target sequence (P11473 whole entry, looked up): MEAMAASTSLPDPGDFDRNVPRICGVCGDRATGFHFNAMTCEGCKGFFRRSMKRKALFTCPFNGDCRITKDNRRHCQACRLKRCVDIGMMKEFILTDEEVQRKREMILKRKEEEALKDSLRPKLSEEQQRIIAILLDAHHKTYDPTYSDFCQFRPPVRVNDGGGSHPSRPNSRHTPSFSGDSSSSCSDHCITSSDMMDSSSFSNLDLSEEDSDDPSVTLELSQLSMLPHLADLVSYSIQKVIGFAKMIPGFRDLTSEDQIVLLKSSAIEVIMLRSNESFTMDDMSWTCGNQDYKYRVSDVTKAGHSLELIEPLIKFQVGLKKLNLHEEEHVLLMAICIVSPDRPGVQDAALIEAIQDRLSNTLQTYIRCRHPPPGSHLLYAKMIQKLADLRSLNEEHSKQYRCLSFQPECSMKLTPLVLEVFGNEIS
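Compounds are added to VDR with labelled SRC2-3 coactivator peptide and held 2 h at room temperature. Inhibition of the VDR–peptide interaction is then read as a change in fluorescence polarization.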
* hit, by the source's call; & = joins results of further samples; [ ] = another dose, or the depositor's remark. % is set by controls: 0 for no effect and ±100 for the full control effect; potency is the fitted concentration of half-maximal effect. A portion of the library (hit frequency here may not be typical).

What do the screens show for `O=[N+]([O-])c1cc(C(F)(F)F)c(Cl)cc1N1CCN(CCO)CC1`?
VDR inh: -3.6%

What do the screens show for `O=C(c1ccc(S(=O)(=O)Nc2cccc(C(F)(F)F)c2)cc1)N1CCOCC1`?
VDR inh: 6.7%

How did O=C(NCc1cn2ccccc2n1)c1ccccc1 do in these assays?
VDR inh: 1.8%

What do the screens show for `CCOc1cc(NC(=O)c2ccccc2C(=O)O)c(OCC)cc1NC(=O)c1ccccc1F`?
VDR inh: -2.5%

How did Cc1cc(C)cc(NC(=O)C(OC(=O)c2ccc(NC(=O)CC#N)cc2)c2ccccc2)c1 (centres undefined) do in these assays?
VDR inh: 31.9%[activator]

Results for Cc1cc(OC(=O)c2cccc(C(F)(F)F)c2)c([N+](=O)[O-])c(=O)[nH]1 ?
VDR inh: -0.8%

How did COc1ccc(NC(=O)CN(Cc2ccccc2)S(=O)(=O)c2ccc3nc(C)sc3c2)cc1 do in these assays?
VDR inh: -5.0%

What do the screens show for `O=C(C1CCCCC1)N1CCN(C(=O)C2CCCCC2)CC1`?
VDR inh: 6.5%

How did CC(C)(C)C(=O)Cn1ncc(N2CCCC2)c(Br)c1=O do in these assays?
VDR inh: -12.8%

How did Cc1ccccc1NC(=O)Cn1cc(S(=O)(=O)N2CCCC2)c(S(=O)(=O)N2CCCC2)c1 do in these assays?
VDR inh: 1.9%

Results for CCn1c(SCc2c(Cl)cccc2Cl)nnc1-c1nn(-c2ccccc2)ccc1=O ?
VDR inh: 3.0%

Results for Cc1nnc2n1N=C(c1ccccc1)CS2 ?
VDR inh: 16.4%

What do the screens show for `CCOC(=O)C1=C(O)C(=O)N(Cc2ccccc2)C1`?
VDR inh: -3.7%&-6.2%

What do the screens show for `Cc1ccccc1NC(=O)Cc1nc(COC(=O)c2ncc(Cl)c(Cl)c2Cl)cs1`?
VDR inh: 1.6%

Results for Cc1nnc(NC(=O)Cc2ccc(OCc3c(C)noc3C)cc2)s1 ?
VDR inh: -16.0%

How did CCOC(=O)CNC(=O)CSc1nc(NCc2ccccc2)nc(N(C)C)n1 do in these assays?
VDR inh: 2.7%

How did O=C(N/N=C/c1oc(O)c2ccccc12)c1ccccc1O do in these assays?
VDR inh: -17.2%

What do the screens show for `CCCOc1ccc(N)cc1N`?
VDR inh: inconclusive

How did COc1ccc(CNC(=O)CN(C)Cc2ccc(SC)cc2)cc1 do in these assays?
VDR inh: 9.1%

What do the screens show for `Cc1cc(C)cc(NC(=O)CCc2c(C)nc3c(c2C)c(=O)n(C)c(=O)n3C)c1`?
VDR inh: -10.9%

The last 7 records of the part above come first, to join the parts.
What do the screens show for `Cc1ccccc1NC(=O)Cc1nc(COC(=O)c2ncc(Cl)c(Cl)c2Cl)cs1`?
VDR inh: 1.6%

Results for Cc1nnc(NC(=O)Cc2ccc(OCc3c(C)noc3C)cc2)s1 ?
VDR inh: -16.0%

How did CCOC(=O)CNC(=O)CSc1nc(NCc2ccccc2)nc(N(C)C)n1 do in these assays?
VDR inh: 2.7%

How did O=C(N/N=C/c1oc(O)c2ccccc12)c1ccccc1O do in these assays?
VDR inh: -17.2%

What do the screens show for `CCCOc1ccc(N)cc1N`?
VDR inh: inconclusive

How did COc1ccc(CNC(=O)CN(C)Cc2ccc(SC)cc2)cc1 do in these assays?
VDR inh: 9.1%

What do the screens show for `Cc1cc(C)cc(NC(=O)CCc2c(C)nc3c(c2C)c(=O)n(C)c(=O)n3C)c1`?
VDR inh: -10.9%

What do the screens show for `O=C(N/N=C/c1ccccc1)c1sccc1OCc1ccc(F)cc1`?
VDR inh: 8.5%

How did CCCNC1CCS(=O)(=O)C1 (centres undefined) do in these assays?
VDR inh: -2.7%

What do the screens show for `O=c1c2cnn(-c3ccc(F)cc3)c2ncn1Cc1ccccc1`?
VDR inh: -6.9%

Results for C=CCNC(=O)C(=O)N/N=C/c1cccc(Br)c1 ?
VDR inh: -5.1%

Results for CSc1ccccc1NC(=O)Nc1cccc2ccccc12 ?
VDR inh: -1.2%

What do the screens show for `NC(=O)c1ccccc1OCC(=O)Nc1ccc(Cl)c(Cl)c1`?
VDR inh: inconclusive

What do the screens show for `CCOC(=O)c1ccc(NC(=O)CCCn2c(=O)c3cccn3c3cccnc32)cc1`?
VDR inh: 5.0%

How did COc1ccc(-c2csc(COC(=O)C(C)(C)C)n2)cc1 do in these assays?
VDR inh: -3.3%

How did O=C(COCc1cc(-c2cccs2)on1)Nc1cccc(Cl)c1Cl do in these assays?
VDR inh: 0.2%

What do the screens show for `Nc1nc(NCCCN2CCOCC2)nc(Nc2cccc(F)c2)c1[N+](=O)[O-]`?
VDR inh: 12.6%

How did CCn1c(COc2ccc(C)cc2)nnc1SCC(=O)Nc1ccc(S(N)(=O)=O)cc1 do in these assays?
VDR inh: -0.1%

What do the screens show for `COC(=O)c1ccc(-c2ccc(Cl)cc2)nc1C`?
VDR inh: -11.9%

How did CN1C(N)=NC(=O)/C1=C/c1ccccc1F do in these assays?
VDR inh: 12.4%

What do the screens show for `COc1ccc(C)cc1NC(=O)c1cc2c(CO)cnc(C)c2oc1=N`?
VDR inh: -9.1%

Results for O=C(CCc1ccccc1)NNC(=S)NCc1ccc(Cl)cc1 ?
VDR inh: -5.3%

What do the screens show for `COC(=O)c1c(-c2ccccc2Cl)noc1/C=C/N(C)C`?
VDR inh: -23.4%

Results for CCc1ccc2c(O)c3c(cc2c1C(=O)OC)C(=O)c1c(O)ccc(O)c1C3=O ?
VDR inh: inconclusive

How did COc1ccc2c(c1)c(C(=O)CN1CCc3ccccc3C1)c(C)n2C do in these assays?
VDR inh: inconclusive

What do the screens show for `CCOC(=O)c1c(C)oc2c1c(C=NCc1ccccn1)c(O)c1ccccc12`?
VDR inh: -6.3%

Results for COc1ccc(NC(=O)CN(C)C(=O)CSCC(=O)Nc2ccc(C)cc2)cc1 ?
VDR inh: -27.3%

How did CCCCC(CC)C(=O)Nc1ccc(C#N)cc1 (centres undefined) do in these assays?
VDR inh: 1.0%

What do the screens show for `CCN(CC)CCOC(=O)c1ccc(N/C=C(/C#N)c2nc(-c3cc4ccccc4oc3=O)cs2)cc1`?
VDR inh: 23.3%

What do the screens show for `COc1ccccc1NC(=O)C(C)OC(=O)CCNS(=O)(=O)c1cccc(C(F)(F)F)c1` (centres undefined)?
VDR inh: -9.9%

Results for c1ccc(-c2csc(Nc3ccc4c(c3)OCCO4)n2)cc1 ?
VDR inh: -19.8%

Results for Cc1cnc(C(=O)OCC(=O)Nc2ccc(Br)c(C)c2)cn1 ?
VDR inh: -11.3%

What do the screens show for `Cc1cc(OCC(=O)N(Cc2ccco2)C2CCS(=O)(=O)C2)cc(C)c1Cl` (centres undefined)?
VDR inh: 6.3%

How did O=C(NCC1CC1)Nc1cccs1 do in these assays?
VDR inh: -2.1%

What do the screens show for `C=CCNC(=O)CSc1nnc(-c2ccccc2Cl)n1-c1c(C)n(C)n(-c2ccccc2)c1=O`?
VDR inh: -4.3%

What do the screens show for `COc1ccc(C2Nc3ccc(Br)cc3C(c3ccccc3)N2CC(=O)O)cc1` (centres undefined)?
VDR inh: -12.1%

What do the screens show for `COc1ccc(OC)c(NC(=O)CN2C(=O)COc3ccc(S(=O)(=O)N4CCCC4)cc32)c1`?
VDR inh: 24.9%

How did O=C(O)/C=C/C(=O)Nc1nccs1 do in these assays?
VDR inh: 4.4%

What do the screens show for `CNC(=S)NNC(=O)c1cccn(Cc2ccccc2)c1=O`?
VDR inh: -1.9%

How did Cc1ccc(S(=O)(=O)N2CCOCC2)cc1NC(=O)COC(=O)CNC(=O)c1ccc(Cl)cc1Cl do in these assays?
VDR inh: -11.9%

What do the screens show for `CCOc1nc(NCCO)nc(Nc2ccc([N+](=O)[O-])cc2)n1`?
VDR inh: -10.1%

What do the screens show for `Cc1onc(-c2ccccc2Cl)c1C(=O)NCC1CCCO1` (centres undefined)?
VDR inh: -17.2%

Results for CCN(CC)Cc1c(C(=O)N/N=C(\C)c2ccncc2)nnn1-c1nonc1N ?
VDR inh: -8.3%

Results for COc1ccccc1/C=C1\SC(=S)N(NS(=O)(=O)c2ccc(C)cc2)C1=O ?
VDR inh: -3.2%

What do the screens show for `COC(=O)C1=C(C)N(CCCC(=O)O)C(=O)NC1c1ccc([N+](=O)[O-])cc1` (centres undefined)?
VDR inh: -4.9%

How did COc1ccc(CCNC(=O)CNC(=O)Cn2cnc3sc(C)c(C)c3c2=O)cc1OC do in these assays?
VDR inh: -13.5%

What do the screens show for `Cc1ccc(NC(=O)CCCn2c(=O)c3cccn3c3cccnc32)c(Cl)c1`?
VDR inh: 6.7%

What do the screens show for `COc1ccccc1C(=O)Nc1nc2cc3c(cc2s1)OCO3`?
VDR inh: -19.1%

How did CCOc1ccc(C(=O)c2c(N)c(-c3nc(-c4ccc(OCC)cc4)cs3)c3ccccn23)cc1 do in these assays?
VDR inh: 5.3%

How did CCOc1cc(-c2cc(-c3ccc(N)cc3)nc(N)c2C#N)ccc1O do in these assays?
VDR inh: -11.6%

Results for CCOC(=O)/C(=N\Nc1ccccc1Cl)N(C)C1CCS(=O)(=O)C1 (centres undefined) ?
VDR inh: -6.9%

How did COc1ccc(/C=C/C(=O)O)cc1S(=O)(=O)NCc1cccnc1 do in these assays?
VDR inh: -4.6%

How did Oc1c(CN2CCOCC2)cc(COCc2ccccc2)c2cccnc12 do in these assays?
VDR inh: inconclusive

Results for Cc1cccc(NC(=O)CNC(=O)N2CC(=O)Nc3ccccc32)c1C ?
VDR inh: 21.7%

What do the screens show for `O=C(COC(=O)c1cnccn1)NC(=O)c1ccccc1`?
VDR inh: -8.6%

Results for CC(C)Oc1ccccc1C1CC(=O)Nc2cc3c(cc21)OCCO3 (centres undefined) ?
VDR inh: 20.1%

Results for COc1ccc(NC(=O)CCN2C(=O)C3CC=CCC3C2=O)cc1S(=O)(=O)N1CCCCC1 (centres undefined) ?
VDR inh: 8.8%

What do the screens show for `O=C(NNc1cc(N2CCOCC2)nc(N2CCOCC2)n1)c1ccc(Cl)c(Cl)c1`?
VDR inh: 18.0%

Results for O=C(/C=C/c1ccccc1Cl)Nc1cccc(S(=O)(=O)NC2=NCCCCC2)c1 ?
VDR inh: -9.4%

Results for COC(=O)c1[nH]c2ccccc2c1NC(=O)CN1CC(C)OC(C)C1 (centres undefined) ?
VDR inh: -7.2%

What do the screens show for `C/C(=N\NC(=S)Nc1ccc(C)cc1)c1cc2ccccc2o1`?
VDR inh: -0.4%

What do the screens show for `Cc1cccc(OCCCC(=O)Nc2ccc3c(c2)OCO3)c1`?
VDR inh: 10.1%

What do the screens show for `CCCCn1c(N)c(N(CC(C)C)C(=O)C2CCN(C(=O)c3ccc(Cl)cc3)CC2)c(=O)[nH]c1=O`?
VDR inh: -0.2%

What do the screens show for `COc1ccc(-c2csc(NC(=O)Nc3ccccc3)n2)cc1`?
VDR inh: 17.0%

What do the screens show for `Cc1nnc(SCC(=O)Nc2cc(S(C)(=O)=O)ccc2Cl)n1Cc1ccccc1`?
VDR inh: -2.9%

How did CCc1nnc(NC(=O)c2nc3nc(C)cc(C)n3n2)s1 do in these assays?
VDR inh: -10.4%

What do the screens show for `COc1ccccc1C(CNC(=O)CNC(=O)c1ccc(Cl)c(Cl)c1)N1CCCC1` (centres undefined)?
VDR inh: -4.1%

How did CC(C)C[C@@H](CNCC(=O)[C@H](CC(C)C)NC(=O)c1[nH]cnc1C(=O)N[C@@H](C)CN)NC(=O)c1nc[nH]c1C(=O)N[C@@H](C)C(=O)O do in these assays?
VDR inh: -10.9%

Results for CC(=O)NC(CCS(C)(=O)=O)C(=O)Nc1cccc(C(C)=O)c1 (centres undefined) ?
VDR inh: -1.0%

How did Nc1ccc(-c2c3ccccc3nc3ccccc23)cc1 do in these assays?
VDR inh: 0.4%

What do the screens show for `CCC(C)(C)n1nnnc1CN1CCC(NC(=O)c2ccccc2C)CC1`?
VDR inh: -12.0%

Results for CC(=O)Nc1ccc(C(=O)CN2C(=O)NC3(CCCc4ccccc43)C2=O)c(F)c1 (centres undefined) ?
VDR inh: 5.4%

How did CCOC(=O)CCCSc1nc(-c2ccc3c(c2)OCO3)cc(C(F)(F)F)c1C#N do in these assays?
VDR inh: 4.6%

Results for O=C(O)Cn1nc2ccccc2n1 ?
VDR inh: -3.5%

How did COC(=O)C1=C(C)NC(C)=C(C(=O)OC)C1c1ccccn1 do in these assays?
VDR inh: 4.2%

What do the screens show for `Cc1cc(C)c(N=C2SCC(=O)N2Cc2ccco2)c(C)c1`?
VDR inh: -9.7%

How did CCOC(=O)c1c(C)[nH]c(C)c1S(=O)(=O)N1CCC(C(=O)NCc2ccccc2Cl)CC1 do in these assays?
VDR inh: 5.0%

How did O=S(=O)(c1ccc(S(=O)(=O)N(Cc2cccs2)CC2CCCO2)cc1)N1CCCCC1 (centres undefined) do in these assays?
VDR inh: -6.2%

What do the screens show for `COC(=O)Nc1ccc(S(=O)(=O)N2CCCC(C(=O)N3CCC(C)CC3)C2)cc1` (centres undefined)?
VDR inh: -3.1%

How did O=C(NCCCn1ccnc1)c1cc2cc([N+](=O)[O-])ccc2oc1=O do in these assays?
VDR inh: -6.4%

Results for O=c1ccc(Cc2ccccn2)n[nH]1 ?
VDR inh: -8.6%

What do the screens show for `COc1cc(OC)c2ccc(=O)oc2c1C(CCN1CCCC1)c1ccc(N(C)C)cc1` (centres undefined)?
VDR inh: -11.8%&-1.5%

How did O=c1c(NCCc2ccc(Cl)cc2)c(-c2ccccc2)c1=O do in these assays?
VDR inh: 4.9%

Results for O=C(O)CCn1cc(-c2ccc(Cl)cc2)nc1-c1ccc(Cl)nc1 ?
VDR inh: 10.0%

What do the screens show for `CCOC(=O)C1(Cc2cccc(Cl)c2)CCCN(C(=O)c2ccco2)C1` (centres undefined)?
VDR inh: inconclusive

Results for COc1ccc(CCNC(=O)CSc2nnc(Cc3csc(N)n3)n2C)cc1OC ?
VDR inh: -3.5%

What do the screens show for `CC1=CC2C(C)(C)CC(=O)C[C@]2(C)CC1COc1ccc2c(c1)CC(=O)C=C2` (some centres undefined)?
VDR inh: -19.5%
